Menin-MLL FL inh: menin-MLL binding inhibition, fluorescein peptide | Fluorescence polarization, fluorescein-MLL peptide displacement from menin | FP activity change, % at 61.4 µM | 290,000 tested, under 10 active | AID 1766; inconclusive = falling polarisation curve, or a change in total fluorescence; inactive = total fluorescence flat and polarisation flat or rising; no compound was filed as active; the % refers to the polarisation; negative = inhibition;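 also: % of control where 0% means no effect; inhibitors lower the polarisation; unlabelled MLL peptide was the positive control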
Sfp inh: Sfp phosphopantetheinyl transferase inhibition; Q9F4F7; Biochemical Sfp PPTase activity, qHTS; Potency, µM, inactives show max response, negative = inhibition, actives largely listed as inhibitors; 310,000 tested, 3.5% active; active = well fitted inhibition curve with a large enough effect; inconclusive = small, poorly fitted or top-dose-only effect, or another doubt; inactive = no such curve, though single readings can be large or run the other way;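 also: the enzyme is Sfp with the accession as filed and its product quenches rhodamine fluorescence; potency is read from the fitted curve at half-maximal effect; 0% = enzyme reaction without inhibitor and -100% = no enzyme wells; top concentration of the series not given in the record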
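Step 1, compound plus 15 nM Sfp-PPTase, 15 min, room temperature. Step 2, add rhodamine-CoA (5 uM) and BHQ-2-YbbR (12.5 uM). Step 3, read 525/598 nm fluorescence at 0 and 30 min.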
gsp agonist: activates gsp, the McCune-Albright syndrome mutation; gsp mutant cells, cAMP HTRF, 30 min; control for the full effect not named in the record; 340,000 tested, 0.13% active; Potency, µM (series often up to 76.9 µM), for inactives: at the top dose activation (cAMP increase), most hits filed as activators; AID 624287; active = well fitted activation curve with a large enough effect; inconclusive = small, poorly fitted or top-dose-only effect, or another doubt; inactive = no such curve, though single readings can be large or run the other way; cell line not stated here;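 also: phosphodiesterase inhibitor Ro 20-1724 added with compounds to block cAMP breakdown; potency is read from the fitted curve at half-maximal effect; nearly all actives have a fitted effect of over 60% in size; about a fifth of the inactives were tested at one dose only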
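Cells in DMEM/10% FBS with G418 were pretreated with compounds in DMSO plus […] (300 uM stock) for 30 min at 37C. cAMP was measured by HTRF (cAMP-d2 plus anti-cAMP antibody-K) after 30 min at room temperature.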
TRPML1 blocker: blocks the human TRPML1 channel | Q9GZU1 | TRPML1-inducible cells, Ca2+ dye fluorescence, FDSS; active compounds read low; inhibition of EC80 agonist-evoked calcium signal | activity change, negative = inhibition, % (no concentration beside the values) | 390,000 tested, 0.02% active | AID 624415; in the data active means activity change below about -50%; inconclusive means about -30% to -50%; inactive means above about -30%;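 also: stimulus is agonist 54-4 at its EC80 concentration; % is scaled to controls: 0 for no effect and ±100 for the full control effect; compound concentration not given in the record; the text of the record puts the active cut at -80%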
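Tet-induced TRPML1-DL cells loaded with Ca8 no-wash calcium dye were read kinetically on FDSS. Compound addition was followed by EC80 agonist 54-4 (4 uM final); inhibition was read over 110 s.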
TRPV1 potentiator: human TRPV1 potentiation | Q8NER1 | TRPV1-expressing cells, Fluo-8 calcium influx, capsaicin EC20 potentiation; host cell line not named in the record; control for the full effect not named in the record | potentiation, % at 8.33 µM | 320,000 tested, 0.02% active | AID 540277; active means potentiation above 80%; inconclusive means 30% to 80%; inactive means below 30%; also: 0% is about no effect
Target sequence (Q8NER1 whole entry, looked up): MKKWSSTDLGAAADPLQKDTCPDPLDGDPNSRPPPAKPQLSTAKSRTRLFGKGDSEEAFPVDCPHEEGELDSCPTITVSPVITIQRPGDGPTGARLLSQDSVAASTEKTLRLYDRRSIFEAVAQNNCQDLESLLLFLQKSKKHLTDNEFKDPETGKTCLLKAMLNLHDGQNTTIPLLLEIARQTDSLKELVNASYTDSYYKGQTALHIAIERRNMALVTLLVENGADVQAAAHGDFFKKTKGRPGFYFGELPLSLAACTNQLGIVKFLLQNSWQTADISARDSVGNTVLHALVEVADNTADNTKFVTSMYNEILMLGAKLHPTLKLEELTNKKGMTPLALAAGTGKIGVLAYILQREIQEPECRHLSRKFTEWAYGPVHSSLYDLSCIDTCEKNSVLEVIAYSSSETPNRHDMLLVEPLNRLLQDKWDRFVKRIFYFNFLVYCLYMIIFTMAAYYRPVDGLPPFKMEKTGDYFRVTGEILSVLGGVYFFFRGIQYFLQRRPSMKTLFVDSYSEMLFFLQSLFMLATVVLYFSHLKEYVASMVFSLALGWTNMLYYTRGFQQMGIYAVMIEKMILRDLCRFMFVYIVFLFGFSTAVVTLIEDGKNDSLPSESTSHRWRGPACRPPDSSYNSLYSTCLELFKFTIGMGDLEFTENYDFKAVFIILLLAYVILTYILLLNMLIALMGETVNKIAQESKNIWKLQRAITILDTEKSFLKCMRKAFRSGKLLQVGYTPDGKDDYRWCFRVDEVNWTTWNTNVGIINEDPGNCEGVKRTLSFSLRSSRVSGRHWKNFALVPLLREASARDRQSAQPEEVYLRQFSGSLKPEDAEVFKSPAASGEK
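Fluo-8 calcium influx in TRPV1-expressing cells, kinetic read (ex 480/em 520 nm). Compound added and read 3 min for agonist activity, followed by capsaicin at EC20 final and 2 min further read for enhancement.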
ClpP mod: qHTS Assay for Activators of ClpP. purified B. subtilis ClpP, FRET peptide cleavage, 20 min. Potency, µM (highest dose often 57.5 µM), for inactives: at the highest dose activity change, negative = active. ATP-dependent Clp protease proteolytic subunit (Bacillus subtilis (strain 168)), P80244. 340,000 tested, 1.9% active; active = well fitted falling curve with a large enough effect; inconclusive = small, poorly fitted or top-dose-only effect; inactive = no such curve, though single readings can be large or run the other way; also: potency is read from the fitted curve at half-maximal effect; the source files actives as falling curves though it sought activators and does not explain the sign; nearly all actives have a fitted effect of over 65% in size; many hits overshoot -100%
Target sequence (P80244 whole entry, looked up): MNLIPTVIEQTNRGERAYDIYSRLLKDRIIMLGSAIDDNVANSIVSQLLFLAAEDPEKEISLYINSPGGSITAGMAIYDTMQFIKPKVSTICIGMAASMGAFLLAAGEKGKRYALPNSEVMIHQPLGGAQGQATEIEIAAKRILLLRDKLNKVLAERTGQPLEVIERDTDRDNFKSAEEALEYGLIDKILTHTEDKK
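ClpP 10 microg/mL final, pH 8 Tris/KCl buffer with BSA, glycerol, Tween-20; compound pinned in; FRET-FV substrate; RT 20 min; Ex320/Em430; ΔFRET vs ADEP 5.8 microM, DMSO, no enzyme.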
gsp antagonist: antagonizes gsp, the McCune-Albright syndrome mutation | gsp-mutant cells, cAMP HTRF, 30 min; control for the full effect not named in the record | Potency, µM (highest dose often 76.9 µM), for the others: at the top dose activity change, negative = inhibition, most hits filed as inhibitors | 340,000 tested, 0.4% active | AID 624288; active = falling curve of any shape with a large fitted effect; inconclusive = falling curve, mostly with a smaller effect; inactive = flat or rising curve; cell line not stated here;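 also: intracellular cAMP measured with PDE inhibitor Ro 20-1724 present during compound exposure; potency is read from the fitted curve at half-maximal effect; % is scaled to controls: 0 for no effect and ±100 for the full control effect; nearly all actives have a fitted effect of over 65% in size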
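HTRF cAMP measurement after 30 min RT detection following 30 min, 37C compound treatment alongside […] (added as 300 uM solution) in G418-selected cells seeded at 2000/well and grown 16–24 h.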
An asterisk follows results filed as active; [ ] = remark or other dose.

`COC(=O)c1ccc(OCC2c3cc(OC)c(OC)cc3CCN2C(=O)c2ccco2)cc1` (stereo not given) gave Menin-MLL FL inh 0.2, Sfp inh 6%, gsp agonist -26%, TRPML1 blocker 33, TRPV1 potentiator 12, ClpP mod -0.1% and gsp antagonist 1%.
Screening CC(Sc1nnc(Cc2ccccc2)o1)C(=O)Nc1ccccc1[N+](=O)[O-] (stereo not given) returned gsp agonist 11%, TRPML1 blocker 4, TRPV1 potentiator 20, ClpP mod -1.9% and gsp antagonist 1%.
`O=C(O)C1C2C=CC(C2)C1C(=O)NCc1ccc(Cl)cc1Cl` (stereo not given) gave Menin-MLL FL inh 2.4, Sfp inh 4%, gsp agonist -14%[15.4 µM], TRPML1 blocker 13, TRPV1 potentiator 2, ClpP mod -0.4% and gsp antagonist 4%.
Screening CCOC(=O)c1cc([N+](=O)[O-])cc([N+](=O)[O-])c1Sc1ncnc2nc[nH]c12 returned gsp agonist 34%, TRPML1 blocker -4, ClpP mod -1.1% and gsp antagonist -13%.
`Nc1ccc(N=Nc2ccccc2)cc1[N+](=O)[O-]` gave gsp agonist -4%, TRPML1 blocker 16 and gsp antagonist -8%.
Screening O=C(CN(c1ccccc1)S(=O)(=O)c1ccccc1)N/N=C/c1ccc(OC2CSC2)cc1 returned Menin-MLL FL inh 2.9, Sfp inh 0% and TRPV1 potentiator 10.
CSc1nnc(-c2ccc(NC(N)=S)cc2)o1 was read as Menin-MLL FL inh 2.1, Sfp inh 17%, gsp agonist 0%, TRPML1 blocker 5, TRPV1 potentiator 19, ClpP mod 4.3% and gsp antagonist 3%.
For COc1cc(C(=O)NCc2nnc(SCC(=O)NCc3ccccc3)o2)cc(OC)c1OC the results were Menin-MLL FL inh 0.0, Sfp inh 11%, gsp agonist -7%, TRPML1 blocker -24, TRPV1 potentiator 6, ClpP mod -4.6% and gsp antagonist 12%.
`Cc1ccc(S(=O)(=O)N(C)c2ccc(C(=O)N3CCOCC3)cc2)cc1` gave Menin-MLL FL inh 1.2, Sfp inh -9%, gsp agonist 2%[15.4 µM], TRPML1 blocker 17, TRPV1 potentiator -4, ClpP mod -0.5% and gsp antagonist -18%.
COc1ccc(CC(=O)NNC(=S)Nc2ccc(Br)cc2)cc1 was read as Menin-MLL FL inh -0.1, Sfp inh 10%, gsp agonist -54%[inhibitor], TRPML1 blocker -5, TRPV1 potentiator 17, ClpP mod 0.2% and gsp antagonist 9%.
Screening CN(C)CCCNC(=O)C(=O)Nc1cc2c3c(c1)CC(=O)N3CCC2 returned Menin-MLL FL inh -1.6, Sfp inh 14%, gsp agonist inconclusive, TRPML1 blocker 30, TRPV1 potentiator 3, ClpP mod 0.7% and gsp antagonist -7%.
`CC(OCc1ccccc1)C(NC(=O)OC(C)(C)C)C(=O)NCC1CCCO1` (stereo not given) gave Menin-MLL FL inh 3.6, Sfp inh 10%, gsp agonist 5%, TRPML1 blocker -6, TRPV1 potentiator -3, ClpP mod -3.9% and gsp antagonist 8%.
`COC(=O)N/N=C/c1cn(CCOc2ccccc2OC)c2ccccc12` gave Menin-MLL FL inh 0.6, Sfp inh 5%, gsp agonist 7%, TRPV1 potentiator 21, ClpP mod -0.6% and gsp antagonist -2%.
`O=C(Cc1ccc(Cl)cc1)Nc1ccc(S(=O)(=O)Nc2cnc3ccccc3n2)cc1` gave Menin-MLL FL inh 11, Sfp inh 7%, gsp agonist 30%, TRPML1 blocker 3, TRPV1 potentiator 12 and gsp antagonist inconclusive.
For Cc1ccc(NC(=O)C2COc3ccccc3O2)nc1 (stereo not given) the results were Menin-MLL FL inh 0.2, Sfp inh 11%, gsp agonist 12%, TRPML1 blocker -5, TRPV1 potentiator -15, ClpP mod -2.0% and gsp antagonist 6%.
For CC(Nc1ccc(Cl)c(Cl)c1)C(=O)NN (stereo not given) the results were Menin-MLL FL inh -0.1, Sfp inh 11%, gsp agonist -4%[15.4 µM], TRPML1 blocker 5, TRPV1 potentiator -12, ClpP mod -16% and gsp antagonist -6%.
Screening O=C(c1cccc(OC2CCN(Cc3ccc(F)cc3)CC2)c1)N1CCCC1 returned Menin-MLL FL inh -0.7, Sfp inh 16%, gsp agonist -5%, TRPML1 blocker -27, TRPV1 potentiator 21, ClpP mod -1.4% and gsp antagonist -5%.
`Cc1onc(-c2ccccc2)c1-c1nc2ccccc2c(=O)o1` gave Menin-MLL FL inh 1.3, Sfp inh -1%, gsp agonist -11%[15.4 µM], TRPML1 blocker 11, TRPV1 potentiator 3, ClpP mod -0.4% and gsp antagonist 21%.
`CCN(CC)CCn1c(NCc2cc(OC)ccc2OC)nc2ccccc21` gave Menin-MLL FL inh -5.1, Sfp inh 0%, gsp agonist 13%, TRPML1 blocker 3, TRPV1 potentiator -15, ClpP mod 1.1% and gsp antagonist 9%.
For O=C(NCc1cnc2ccccn12)C1CCC(=O)N(Cc2cccc(F)c2)C1 (stereo not given) the results were Sfp inh 12%, gsp agonist 4%[15.4 µM], TRPML1 blocker -8, TRPV1 potentiator 8, ClpP mod 16µM* and gsp antagonist 2%.
Screening COCc1ccc(C(=O)Nc2ccccc2C(=O)NCc2cccnc2)cc1 returned Menin-MLL FL inh -0.1, Sfp inh 13%, gsp agonist 17%[15.4 µM], TRPML1 blocker -20, TRPV1 potentiator 3 and gsp antagonist -35%.
For CCN(CC)CCCNC(=O)CSc1nc(-c2ccc(F)cc2)cc(C(F)(F)F)n1 the results were Menin-MLL FL inh -1.6, Sfp inh 14%, gsp agonist 5%[15.4 µM], TRPML1 blocker -1, TRPV1 potentiator -2, ClpP mod -4.5% and gsp antagonist 4%.
For COc1cccc(CC2(CO)CCN(S(=O)(=O)c3ccc(OC)cc3OC)CC2)c1 the results were Menin-MLL FL inh 1.0, Sfp inh -9%, gsp agonist -23%, TRPML1 blocker 53, TRPV1 potentiator -12 and gsp antagonist -13%.
COc1ccc(C(=O)O)cc1NC(=S)NC(=O)Cc1ccc(Cl)cc1 was read as Menin-MLL FL inh -1.6, Sfp inh 14%, gsp agonist -27%, TRPML1 blocker 25, TRPV1 potentiator -6, ClpP mod 1.0% and gsp antagonist -18%.
Screening CCCN1CCC(=O)N(C(CSc2ccc(OC)cc2)c2ccccc2)CC1 (stereo not given) returned Menin-MLL FL inh 6.2, Sfp inh -13% and TRPML1 blocker -6.
`Cc1ccc2c(CN3CCN(CCO)CC3)cc(=O)oc2c1C` gave Menin-MLL FL inh 2.2, Sfp inh 20%, gsp agonist 2%, TRPML1 blocker -7, TRPV1 potentiator -17, ClpP mod -3.6% and gsp antagonist 12%.
`COc1ccc(/C=N\N=C2/SC(CC(=O)O)C(=O)N2c2ccc(O)cc2)cc1` (stereo not given) gave Menin-MLL FL inh 4.4, Sfp inh 30%[activator], gsp agonist -45%[inhibitor], TRPML1 blocker -6, TRPV1 potentiator -2, ClpP mod 0.2% and gsp antagonist -1%.
Screening CSc1cc(-c2ccccc2)n(C)c(=O)c1C#N returned Menin-MLL FL inh 0.5, Sfp inh 18%, gsp agonist 22%, TRPML1 blocker 12, TRPV1 potentiator 3 and gsp antagonist -13%.
For COc1ccc(C(=O)COC(=O)Cn2cnc3c2c(=O)n(C)c(=O)n3C)c(OC)c1 the results were Menin-MLL FL inh 0.7, Sfp inh 3%, gsp agonist inconclusive, TRPML1 blocker 2, TRPV1 potentiator -4, ClpP mod 11% and gsp antagonist 11%.
For CCOc1ccccc1N(CC(=O)NCCc1ccc(OC)cc1)S(=O)(=O)c1ccc(C)cc1 the results were gsp agonist -1%, TRPML1 blocker 17 and ClpP mod -2.8%.
COC(=O)c1c(C)[nH]c(C(=O)CN(C)CC(=O)Nc2cccc(F)c2)c1C was read as gsp agonist 2%, TRPML1 blocker 4, TRPV1 potentiator -2, ClpP mod 2.7% and gsp antagonist -28%.
For Cn1c(Cn2cnc3ccccc32)nnc1SCc1ccccc1 the results were Menin-MLL FL inh 2.2, Sfp inh 14%, gsp agonist 5%, TRPML1 blocker 1, TRPV1 potentiator 12, ClpP mod -3.4% and gsp antagonist -13%.
`Cc1ccccc1CNC(=O)c1ccccc1C` gave Menin-MLL FL inh 3.6, Sfp inh 16%, gsp agonist 5%, TRPML1 blocker -13, TRPV1 potentiator 6, ClpP mod -1.4% and gsp antagonist 0%.
For CCOc1ccc(C(=O)NN2C(=S)NC(C)(C)C=C2C)cc1 the results were Menin-MLL FL inh 1.0, Sfp inh 12%, gsp agonist -7%[15.4 µM], TRPML1 blocker -6, TRPV1 potentiator 8, ClpP mod -0.3% and gsp antagonist -14%.
`COc1ccc(CC(=O)N(C)CC(=O)Nc2c(C)cccc2C)cc1S(=O)(=O)N1CCOCC1` gave gsp agonist -13%, TRPML1 blocker -11, TRPV1 potentiator -10, ClpP mod -2.4% and gsp antagonist 7%.
`O=C(CCNC(=O)C1CCN(S(=O)(=O)c2ccc(F)cc2)CC1)NCc1ccccc1Cl` gave Menin-MLL FL inh 1.3, Sfp inh 13%, gsp agonist 15%, TRPML1 blocker -5, TRPV1 potentiator 10, ClpP mod -0.2% and gsp antagonist -1%.
For CC(C)CC(=O)Nc1cccc2c1C(=O)N(c1ccccc1)C2=O the results were Menin-MLL FL inh -0.5, Sfp inh 5%, gsp agonist -34%[inhibitor], TRPML1 blocker -16, TRPV1 potentiator 21, ClpP mod -0.2% and gsp antagonist -12%.
`O=C(c1cc2ccccc2oc1=O)N1CCN(c2ccc(N3CCOCC3)nn2)CC1` gave Menin-MLL FL inh 0.3, Sfp inh 31%[activator], gsp agonist 31%, TRPML1 blocker 9, TRPV1 potentiator -5, ClpP mod -3.9% and gsp antagonist 3%.
`COc1ccc(C)cc1S(=O)(=O)N(C)CC(=O)Nc1ccccc1` gave Menin-MLL FL inh -0.4, Sfp inh 14%, gsp agonist -59%[inhibitor], TRPML1 blocker 20, TRPV1 potentiator 4, ClpP mod 0.6% and gsp antagonist -9%.
Screening Cc1csc(NC(=O)CSc2nnc(Cc3cccn3C)n2CCc2ccccc2)n1 returned Menin-MLL FL inh 1.6, Sfp inh -23%, gsp agonist -38%, TRPML1 blocker 17, TRPV1 potentiator -2, ClpP mod 5.7% and gsp antagonist -9%.
